# Compound activity as filed in PubChem BioAssay.
# eIF4H inh: inhibitors of RNA binding by human eIF4H. Q15056. eIF4H fluorescence polarization binding assay. inhibition, % at 35 µM. hit rate 0.94% among 290,000. AID 2012;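 active = 50% or more with normal probe brightness, or confirmed in later tests; inconclusive = above 50% with abnormal brightness, or retests that disagree; inactive = below 50% or failed in later tests; about a fifth of its hits are not listed in these tables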;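 also: calls also rest on retests at 20 µM and on dose response follow-up; 0% = protein and probe with vehicle and 100% = probe without protein; strong numbers were not always called active; many hits fall short of the cut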
# Yeast UUG start: modulators of start codon recognition fidelity in yeast; activity score, % at 18.7 µM; hit rate 0.13% among 350,000; S. cerevisiae UUG-firefly luciferase reporter, luminescence/redox ratio;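 active = replicate mean at a twofold rise or more, about +100% in these data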;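 also: firefly luciferase made from a UUG start codon reports start codon fidelity; reporter light over untreated wells divided by growth signal over untreated wells; some hits fall short of that in this replicate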
# Rce1 inhib: blocks yeast Ras-converting enzyme; Q03530; yeast membranes, quenched prenylated peptide cleavage fluorescence; hit rate 0.27% among 290,000; calls only;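 active = fall in fluorescence gain of 50% or more versus controls, with final raw signal at or below 3038400; inconclusive = same 50% fall but final raw signal above 3038400; inactive = fall in fluorescence gain under 50%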;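 also: plate controls were neutral control wells for no effect and wells lacking membranes for full effect; tested at 10 µM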
# PABP FP inh: blocks human PABP binding to poly(A) RNA | fluorescence polarization | inhibition, % at 35 µM | hit rate 1% among 290,000 | P11940;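 active = 50% or more with normal probe brightness, or confirmed in later tests; inconclusive = above 50% with abnormal brightness, or retests that disagree; inactive = below 50% or failed in later tests; about a fifth of its hits are not listed in these tables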;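 also: calls also rest on retests at 20 µM and on dose response follow-up; controls were probe without protein and protein plus probe with vehicle; some compounds called inactive have numbers as strong as hits; many hits fall short of the cut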
# Target sequence (P11940 whole entry, looked up): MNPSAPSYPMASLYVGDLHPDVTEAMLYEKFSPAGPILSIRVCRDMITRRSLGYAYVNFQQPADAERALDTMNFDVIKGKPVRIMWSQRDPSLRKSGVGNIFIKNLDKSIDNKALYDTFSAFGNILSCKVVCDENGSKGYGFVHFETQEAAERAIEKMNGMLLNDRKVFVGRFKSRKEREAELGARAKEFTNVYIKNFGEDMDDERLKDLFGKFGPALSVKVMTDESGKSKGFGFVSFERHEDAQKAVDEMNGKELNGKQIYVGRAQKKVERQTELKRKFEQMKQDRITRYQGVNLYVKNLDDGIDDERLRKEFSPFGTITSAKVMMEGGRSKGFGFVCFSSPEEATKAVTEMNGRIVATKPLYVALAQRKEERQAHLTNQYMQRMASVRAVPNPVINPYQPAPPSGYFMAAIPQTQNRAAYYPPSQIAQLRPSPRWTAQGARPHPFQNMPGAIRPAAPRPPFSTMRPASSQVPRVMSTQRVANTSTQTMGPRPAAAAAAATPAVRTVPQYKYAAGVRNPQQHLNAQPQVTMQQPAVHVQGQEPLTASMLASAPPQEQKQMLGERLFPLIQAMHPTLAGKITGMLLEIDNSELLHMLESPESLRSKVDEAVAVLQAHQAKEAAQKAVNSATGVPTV
# Env fusion inh: inhibitors of HIV Env-mediated cell fusion; HeLa-JRFL Env/CEM21 cell fusion, luciferase; hit rate 1.1% among 360,000; inhibition, % at 12.3 µM;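 active = mean replicate inhibition score of at least 50 and every replicate individually at or above 50; inconclusive = only one of the two criteria met; inactive = mean below 50 and not all replicates reaching 50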;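 also: 0% = plate neutral controls and 100% = maraviroc near 300 nM; one replicate is shown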
# MT1-MMP act inh: blocks activation of human MT1-MMP | P50281 | HT1080 RFP-PRO-GFP cells, GFP/RFP ratio fluorescence, overnight; percent of plate control window, DMSO zero | GFP/RFP ratio change, % at 20 µM | hit rate 0.061% among 360,000 | AID 651647;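 active = GFP/RFP ratio change of at least 30% with cell ATP level not reduced by more than half and red fluorescence within 50% of control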; also: strong numbers were not always called active
#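 Assay system: HT1080 RFP-PRO-GFP cells. Benchmarks: DMSO vehicle wells and RFP-L50D-GFP reporter cell wells. Times: overnight cell settling, then overnight compound exposure, 37 °C, 5% CO2. Compound: 20 µM single dose, 1% DMSO. Read-out basis: GFP/RFP fluorescence ratio.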
# CSC inhib: cancer stem cell inhibition | cancer stem cell-like cells viability, luminescence | inhibition, % at 7.5 µM | hit rate 1.1% among 300,000 | AID 2717;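 active = mean at 75% or more and at least half the replicates too; inconclusive = mean and replicates disagree; tested in HMLE shEcad cells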;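 also: 0% = median of negative and 100% = median of positive control wells; the first replicate is given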
# eIF4H inh retest: also measured in eIF4H inh; calls as there; inhibition, %; compound at 20 µM; confirmation average;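 mean of two retest wells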
# PABP FP inh retest: further read-out of PABP FP inh, marked with its call; inhibition, %; compound at 20 µM; confirmation repeats;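 mean of two retest wells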
# MT1-MMP act inh RFP: recorded beside MT1-MMP act inh, whose call it bears; RFP signal change, %; measured here: RFP expression control read;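 0 = vehicle wells; hits needed this value within 50% of zero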
# * hit, by the source's call; i = inactive; ? = inconclusive; nt = no result given; & = joins results of further samples.
SMILES,eIF4H inh,Yeast UUG start,Rce1 inhib,PABP FP inh,Env fusion inh,MT1-MMP act inh,MT1-MMP act inh RFP,CSC inhib,others
CCCCc1ncc(CN2CCCC(C(=O)c3ccc(SC)cc3)C2)[nH]1 (configuration not stated),6,nt,i,-2,15,-7,-6,1,
Cn1c(O)c(C(=Nc2ccc(F)cc2)c2ccccc2)c(=O)n(C)c1=O,58,-1,i,27,-1,-4,1,-9,eIF4H inh retest=3;PABP FP inh retest=0
Cc1ccc(CN2C(=O)NC(=O)C3(Cc4c(nc5ccccn5c4=O)N4CCCCCC43)C2=O)cc1 (configuration not stated),-2,-12,i,2,-99,3,-4,-10,
CCN(CC)C(=O)c1ccc(NC(=O)CNC(C)c2cccc3ccccc23)cc1 (configuration not stated),7,11,i,-2,6,4,1,10,
COC(=O)C1=C(c2ccc(OC(F)(F)F)cc2)C[C@@H]2CC[C@H]1N2C(=O)N1CCC(C)CC1,nt,-10,nt,nt,23,8,-26,-21,
CCc1ccccc1NC(=O)CNCc1ccccc1,-5,nt,i,-2,6,-4,-3,0,
Cc1ccc(-n2c(O)c(/C=N/N3CCOCC3)c(=O)[nH]c2=S)cc1,-6,nt,i,5,2,-1,7,-21,
Cn1c(C(=O)N2CCC3(CC2)OCCO3)cc2c(=O)n(C)c3ccccc3c21,5,7,nt,-6,nt,1,-3,-18,
COc1ccc(OC(=O)N(C)C[C@H]2OCc3cnnn3CCCC(=O)N([C@@H](C)CO)C[C@H]2C)cc1,nt,-2&1,nt,nt,3,3,4,nt,
COc1cc(OC)c2c(c1)OCC1CON(C)C21 (configuration not stated),8,nt,i,2,6,-4,0,-14,
COc1ccc(NC(=O)c2cn(CCC#N)nc2-c2ccccc2)cc1,-5,6,i,-2,3,7,1,3,
COc1cc2c(cc1C=O)OCO2,-3,nt,i,0,21,-1,6,-13,
Cc1nc2ccsc2c(=O)n1-c1ccccc1Cl,nt,nt,i,nt,5,6,3,-3,
COc1ccc(C=C2C(=O)NC(=S)NC2=O)cc1OC,nt,1,nt,nt,-35,-3,3,nt,
COc1ccc(CCn2c(O)c(/C=N/N3CCCCC3)c(=O)[nH]c2=O)cc1OC,13,nt,i,37,nt,2,-4,3,
O=C(c1c[nH]c2ccc(S(=O)(=O)N3CCOCC3)cc2c1=O)N1CCC2(CC1)OCCO2,3,-4,i,-1,4,-1,2,11,
C=Cn1ccnc1P(=S)(c1ccc(N(C)C)cc1)c1nccn1C=C,0,-19,i,2,-52,-4,1,-3,
CCC(=NC1CC1)c1c(O)n(C2CCCCC2)c(=O)[nH]c1=O,-8,-10,nt,7,-14,-3,2,-3,
O=[N+]([O-])c1cc(F)c(N2CCCC2)cc1N1CCNCC1,-3,nt,i,-1,nt,nt,nt,-14,
COc1ccc(O)c(CN2CCCC(C(=O)c3ccccc3SC)C2)c1 (configuration not stated),-5,nt,i,-5,-7,-1,-1,33,

# Ordered by length of the SMILES (smallest number first): 17 of the compounds above
SMILES,eIF4H inh,Yeast UUG start,Rce1 inhib,PABP FP inh,Env fusion inh,MT1-MMP act inh,MT1-MMP act inh RFP,CSC inhib,others
COc1cc2c(cc1C=O)OCO2,-3,nt,i,0,21,-1,6,-13,
CCc1ccccc1NC(=O)CNCc1ccccc1,-5,nt,i,-2,6,-4,-3,0,
Cc1nc2ccsc2c(=O)n1-c1ccccc1Cl,nt,nt,i,nt,5,6,3,-3,
COc1cc(OC)c2c(c1)OCC1CON(C)C21 (configuration not stated),8,nt,i,2,6,-4,0,-14,
COc1ccc(C=C2C(=O)NC(=S)NC2=O)cc1OC,nt,1,nt,nt,-35,-3,3,nt,
O=[N+]([O-])c1cc(F)c(N2CCCC2)cc1N1CCNCC1,-3,nt,i,-1,nt,nt,nt,-14,
COc1ccc(O)c(CN2CCCC(C(=O)c3ccccc3SC)C2)c1 (configuration not stated),-5,nt,i,-5,-7,-1,-1,33,
CCC(=NC1CC1)c1c(O)n(C2CCCCC2)c(=O)[nH]c1=O,-8,-10,nt,7,-14,-3,2,-3,
CCCCc1ncc(CN2CCCC(C(=O)c3ccc(SC)cc3)C2)[nH]1 (configuration not stated),6,nt,i,-2,15,-7,-6,1,
Cn1c(O)c(C(=Nc2ccc(F)cc2)c2ccccc2)c(=O)n(C)c1=O,58,-1,i,27,-1,-4,1,-9,eIF4H inh retest=3;PABP FP inh retest=0
CCN(CC)C(=O)c1ccc(NC(=O)CNC(C)c2cccc3ccccc23)cc1 (configuration not stated),7,11,i,-2,6,4,1,10,
Cn1c(C(=O)N2CCC3(CC2)OCCO3)cc2c(=O)n(C)c3ccccc3c21,5,7,nt,-6,nt,1,-3,-18,
COc1ccc(CCn2c(O)c(/C=N/N3CCCCC3)c(=O)[nH]c2=O)cc1OC,13,nt,i,37,nt,2,-4,3,
O=C(c1c[nH]c2ccc(S(=O)(=O)N3CCOCC3)cc2c1=O)N1CCC2(CC1)OCCO2,3,-4,i,-1,4,-1,2,11,
Cc1ccc(CN2C(=O)NC(=O)C3(Cc4c(nc5ccccn5c4=O)N4CCCCCC43)C2=O)cc1 (configuration not stated),-2,-12,i,2,-99,3,-4,-10,
COC(=O)C1=C(c2ccc(OC(F)(F)F)cc2)C[C@@H]2CC[C@H]1N2C(=O)N1CCC(C)CC1,nt,-10,nt,nt,23,8,-26,-21,
COc1ccc(OC(=O)N(C)C[C@H]2OCc3cnnn3CCCC(=O)N([C@@H](C)CO)C[C@H]2C)cc1,nt,-2&1,nt,nt,3,3,4,nt,

# Continuation:
SMILES,eIF4H inh,Yeast UUG start,Rce1 inhib,PABP FP inh,Env fusion inh,MT1-MMP act inh,MT1-MMP act inh RFP,CSC inhib,others
COc1ccc(/C=C2/C(=O)N(Cc3ccco3)C(=O)N(C(C)C)C2=O)cc1,33,nt,i,-10,-10,-43,10,-2,
COc1ccccc1N1CCN(Cc2ccc3c(c2)OCO3)CC1,nt,nt,i,nt,6,1,2,12,
O=Cc1cn(Cc2c(F)cccc2Cl)c2ccccc12,1,-6,i,-3,4,-3,-19,5,
c1ccc(C2N3CCCN23)cc1 (configuration not stated),-2,-37,i,2,-97,1,1,14,
COc1ccc(CCNCC2CCCO2)cc1 (configuration not stated),-2,-3,i,-2,-3,-1,-2,-9,
CCC1=CCN(CCc2c(C)[nH]c3ccccc23)CC1,nt,-6,i,nt,nt,-2,1,-4,
CC(C)=CCC12CN3CCN(CC(C3)C1=O)C2,-3,-14,i,-4,-7,0,7,6,
COc1cc2c(cc1OC)[C@@H]1C(=O)c3ccc4c(c3O[C@@H]1CO2)C[C@H](C(C)C)O4,-6,-8,i,5,29,-3,-26,41,
Cc1ncc([N+](=O)[O-])n1CCOc1nonc1N,4,nt,i,-7,7,1,7,-10,
O=Cc1cn(Cc2ccc(F)cc2)c2ccccc12,-7,1,i,-16,0,-5,-7,3,
C[C@@]1([C@@H](NP(=O)(c2ccccc2)c2ccccc2)c2ccccc2)C[C@H]1CCO,-3,7,i,18,11,0,6,1,
Cc1cc(/C=C2\C(=O)NC(=O)N(c3cccc(F)c3)C2=O)c(C)n1-c1cc(C(=O)O)cc(C(=O)O)c1,103,nt,i,-5,1,-9,9,-5,eIF4H inh retest=-17;PABP FP inh retest=1
CCCCCn1c(=O)c(C(=O)Nc2ccccc2)c(O)c2ccccc21,0,-20,i,0,3,0,-11,16,
COC(=O)C1=C(c2ccc(F)cc2F)C[C@@H]2CC[C@H]1N2C(=O)NC1CC1,nt,-13,nt,nt,nt,-1,3,-6,
CCCCCCCCCCCCCCCC[N+](C)(C)C,nt,-35,i,nt,0,-4,-26,102*,
C=CCN1C(=O)C2(C(C(=O)OCC)=C(N)Oc3c2c(=O)oc2ccccc32)c2ccccc21 (configuration not stated),-8,-9,i,16,-21,-1,0,-2,
O=C(NN=Cc1ccc(N(CCCl)CCCl)cc1)C(=O)c1c[nH]c2ccccc12,nt,-14,nt,nt,5,-5,-12,nt,
FC(F)(F)c1ccccc1NC1=NCCCS1,-6,-19,nt,-7,12,3,5,8,
CCCS(=O)(=O)N1CCCC(C(=O)N2CCC3(CC2)OCCO3)C1 (configuration not stated),-6,-8,i,-7,nt,2,3,6,
Cn1cc[n+](C)c1P(=S)(c1ccccc1)c1ccccc1,4,-13,i,-2,-2,-1,4,2,
CSc1ccc(CN2CCN(C(=O)Cc3ccccc3)CC2)cc1,nt,-30,i,nt,-23,6,-4,-3,
N#CCCn1cc(C(=O)Nc2ccc(F)cc2)c(-c2ccccc2)n1,-9,-5,i,-2,19,0,1,-14,
O=C(COC(=O)Cc1ccccc1)NC12CC3CC(CC(C3)C1)C2,-1,-10,i,-2,-44,-6,3,-3,
O=C(O)CCn1cc(C=C2C(=O)NC(=S)NC2=O)c(-c2cccc(Br)c2)n1,7,nt,i,16,-6,-2,0,-2,
CC1(C(=O)O)CCCC2(C)c3cc(O)ccc3CCC12 (configuration not stated),nt,-10,i,nt,15,1,6,-8,
Cc1ccccc1-n1c(C)nc2ccccc2c1=O,4,nt,i,-1,6,0,0,-1,
C[C@H]1CN([C@@H](C)CO)C(=O)CCCn2nncc2CO[C@H]1CN(C)C(=O)Oc1ccccc1,nt,-5&-7&1,nt,nt,-1,-2,3,nt,
CCN(CC)CCCN=Cc1c(O)n(-c2cccc(C)c2C)c(=O)[nH]c1=O,-4,-12,i,6,nt,19,1,3,
COC(=O)c1c(C)n(Cc2ccccc2)c2ccc(O)cc12,6,-9,i,9,36,0,-5,15,
O=C(O)c1nn(Cc2ccc(Cl)cc2Cl)c2ccccc12,-3,-7,i,6,2,0,-1,9,
CC1=CC2/C=C(\C)CCC(O)C(O)/C=C/C(=O)C23C(=O)NC(CC(C)C)C3C1C (configuration not stated),-3,-5,i,13,nt,-7,-29,1,
CN1CCN(c2ccc(C(F)(F)F)cc2N)CC1,-13,nt,i,3,-12,0,5,0,
CCC1C2CC3C4N(C)c5ccccc5C45CC(C2C5O)N3[C@@H]1O (some centres not stated),-26,-17,i,-25,-8,-1,2,4,
O=C(N=Nc1c(O)[nH]c(=O)[nH]c1=O)C1COc2ccccc2O1 (configuration not stated),-6,nt,i,-9,-11,-1,3,nt,
COC(=O)C1=C(c2cc3ccccc3s2)C[C@@H]2CC[C@H]1N2C(=O)NCC1CC1,nt,1,i,nt,-5,2,-12,-6,
CCN(CC)c1ccc(/C=C2/C(=O)NC(=O)N(CC3CCCO3)C2=O)cc1 (configuration not stated),?,-4,i,?,-210,-25,13,10,

# This is a subset, so the mix of outcomes need not match the whole.
